DT40 TDP1 CPT = DT40-hTDP1 cell growth loss with CPT | chicken DT40 Tdp1-/-;hTDP1 cells + 20 nM CPT, ATP luminescence, 48 h | Potency, µM (doses to about 46.2 µM), inactives show at the top dose activity change, negative = growth inhibition, most hits filed as inhibitors | 420,000 tested, 12% active; further: nearly all actives have a fitted effect of over 55% in size
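Chicken DT40 Tdp1-/- cells stably complemented with human TDP1 were seeded at 400 cells/well in medium containing 20 nM camptothecin, exposed to pin-transferred compounds, and grown at 37 °C for at least 48 hr. Viability was read as ATP luminescence.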
N370S GC mod = inhibits or activates N370S mutant glucocerebrosidase. P04062. N370S GC spleen homogenate, 4MU-glucoside fluorescence. Potency, µM (highest dose often 59.4 µM), for the others: at the highest dose activity change, negative = inhibition, hits mostly inhibitors. 330,000 tested, 0.092% active;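 further: 0% = full enzyme activity and -100% = no enzyme basal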
Numbers without * were called inactive; u = inconclusive; x = no result given; & = joins results of further samples; [ ] = dose if it differs, or a comment. The call rests on the fitted dose curve; in most records, active means well fitted curve in the direction sought with a large enough effect; inconclusive means small, poorly fitted or top-dose-only effect, or another doubt; inactive means no such curve, though single readings can be large; an effect the other way counts as inactive or inconclusive. Unless noted, on the % scale 0 is the no-effect control and ±100 the full control effect; potency means the concentration at half of the fitted maximal effect. Not all compounds are listed; most or all hits stand in other tables.

SMILES	DT40 TDP1 CPT	N370S GC mod
Cc1onc(-c2ccccc2)c1C(=O)N1CCCC(C(F)(F)F)C1 (stereo not given)	u	-3%
CC(=O)Nc1ccc(C(=O)OCc2ccc(Br)cc2)cc1	5%	18%
CCCNC(=O)NC(=O)CSc1nc2cc(C(=O)OC)ccc2c(=O)n1-c1ccccc1	-21%	0%
O=C(Nc1cc(=O)[nH]c2ncnn12)c1ccco1	-3%	-1%
Cc1[nH]n(-c2cccc3ccccc23)c(=O)c1C=Nc1ccc2[nH]c(=O)[nH]c2c1	-8%	-2%
Cc1nnc(SCC(=O)NC2CCCCC2C)s1 (stereo not given)	9%	10%
O=C(NCCCN1CCCC1=O)c1cc(S(=O)(=O)N2CCOCC2)c(Cl)cc1Cl	12%	-15%
O=C(COC(=O)c1cccc2ccccc12)NCCCc1ccccc1	-2%&19%	-8%
CCCCCc1nnc(NC(=O)C(=O)OCC)s1	9%	8%
COc1c(Cl)cc(Cl)cc1C(=O)Nc1ccc(CN2CCOCC2)cc1	16µM*	-4%
Cc1cccc(C(C)C)c1NC(=O)CSc1ncnc2[nH]ncc12	-28%	x
CC1Sc2ccc(S(=O)(=O)N3CCN(c4cccc(Cl)c4)CC3)cc2NC1=O (stereo not given)	-22%	-8%
O=C(Nc1ccc(C(=O)NCC2CCN(Cc3ccccc3F)CC2)cc1)C1=CSCCO1	-6%	0%
CCc1nnc(NC(=O)Cn2ccc(C(F)(F)F)n2)s1	-9%	8%
CC(C)C(C(=O)Nc1ncn[nH]1)N1C(=O)c2ccccc2C1=O (stereo not given)	-2%	23%
CC(C)CC(=O)NC(=S)Nc1cc(C(=O)O)ccc1Cl	-1%	4%
Cc1ccc(C)c(N2CCN(S(=O)(=O)c3ccc(-c4ccc(=O)[nH]n4)o3)CC2)c1	14%	-9%
O=C(Nc1cccc(C(F)(F)F)c1)c1csc(-c2ccncc2)n1	-10%	-4%
COc1ccc(NC(=O)CCNC(=O)c2ccco2)c(OC)c1	-28%	-4%
CC(Oc1ccc(Cl)cc1)/C(N)=N/O (stereo not given)	16%	2%
CC1CN(C(=O)N2c3ccccc3Sc3ccccc32)C(C)CC1=O (stereo not given)	u	12%
CCOCCCn1c(=S)[nH]c2cc(C(=O)NC3CCCCC3C)ccc2c1=O (stereo not given)	-6%	-8%
CC(C1CC2CCC1C2)n1c(COc2ccccc2F)nnc1SCC(N)=O (stereo not given)	u	-21%
Cc1[nH]c(C)c(S(=O)(=O)N(Cc2ccccc2)C(C)(C)C)c1C(=O)N1CCCC1	u	-2%
COc1ccc(C2=NS(=O)(=O)N(C)C(C(=O)Nc3ccc(C(C)=O)cc3)=C2)cc1OC	18µM*	-22%
CCOC(=O)C1(Cc2cccc(OC)c2)CCN(Cc2ccc(C)s2)CC1	21µM*	-12%
Cc1c(-c2ccccc2)sc2nc[nH]c(=S)c12	u	3%
CC(C)(C)n1nnnc1C(c1cccc(C#N)c1)N1CCCc2ccccc21 (stereo not given)	4%	4%
CCCCC(=O)NNC(=S)NC(=O)C(c1ccccc1)c1ccccc1	u	-8%
CN(C)c1ccc(/C=N/N=C/c2ccccc2O)cc1	u	1%
CC1CCc2c(C(=O)Nc3ccc(N4CCOCC4)cc3)csc2C1 (stereo not given)	0%	0%
COc1ccc2nc(C)c3c(c2c1)OC(C(C)(Cl)Br)C3 (stereo not given)	u	-4%
O=C(Nc1cccnc1)c1cccc(S(=O)(=O)N2CCc3ccccc32)c1	26µM*	-18%
Cc1ccc2[nH]c(=O)c(CN(CC3CCCO3)C(=O)c3ccncc3)cc2c1 (stereo not given)	1%	25%
CCC(C)NC(=O)c1cnn2c1NC(c1ccc3c(c1)OCO3)CC2C(F)(F)F (stereo not given)	9%	13%
CCOC(=O)c1ccc(CN2C(=O)c3ccccc3S2(=O)=O)cc1	-4%	2%
CCOC(=O)c1ccccc1NS(=O)(=O)c1ccc(OCC)cc1	7.9µM*	23%
COc1ccc(OC)c(C2=NOC(C(=O)Nc3ccc4c(c3)OCCO4)C2)c1 (stereo not given)	-19%	-7%
O=c1cc(N2CCCCCC2)[nH]c(=O)n1-c1ccc(Cl)cc1	11%	-25%
CN(CCc1ccccn1)C(=O)c1cccnc1Oc1ccc(Cl)cc1	-4%	-4%
CN(C)/C=C/C(=O)c1ccc2noc(-c3cccc(F)c3)c2c1	-26%	-13%
CC(=O)OCC(=O)[C@@]1(O)CC[C@H]2[C@@H]3CCC4=CC(=O)C=C[C@]4(C)[C@@]3(Cl)[C@@H](Cl)C[C@@]21C	0%	-3%
CCN(CC1COc2ccccc2O1)C(=O)c1ccc(Cl)c(S(=O)(=O)N2CC(C)OC(C)C2)c1 (stereo not given)	7.3µM*	-4%
COc1ccc(NC(=S)Nc2cccc([N+](=O)[O-])c2)cc1	-21%	-4%
O=C(CCN1C(=O)c2ccccc2C1=O)Nc1ccc(-c2nc3ccccc3s2)cc1	-14%	1%
O=S1(=O)C=C(N2CCCCC2)c2ccccc21	-19%	4%[2.35 µM]
O=C1CC(c2ccccc2)n2nc(N3C(=O)c4ccccc4C3=O)nc2N1 (stereo not given)	-2%	-3%
CC(C)CC(=O)Nc1cccc(NC(=O)CC(C)C)n1	-7%	-16%
CC(CNCC1CCCO1)COc1cccc2ccccc12 (stereo not given)	u	-2%
C=CCS(=O)(=O)N1CCCC(Cc2ccccc2C)(C(=O)OCC)C1 (stereo not given)	-1%	0%

(cont.)
SMILES	DT40 TDP1 CPT	N370S GC mod
O=C(COc1ccccc1)NCC(=O)N/N=C/C=C/c1ccccc1	-16%	4%
C=Cn1cc[n+](CC(=O)C(C)(C)C)c1	-4%	-13%
CCN(CC)C(=O)Cn1cc(C(=O)C(=O)N2CCN(Cc3ccccc3)CC2)c2ccccc21	0%	4%
CCC(CC)CN1CCC(CN2CCNC(=O)C2=O)CC1	-5%	x
COc1ccccc1NS(=O)(=O)c1cc(NC(=O)CC(C)(C)C)ccc1N1CCOCC1	0%	-1%
O=C(NCCCN1CCOCC1)c1ccc(CS(=O)(=O)c2ccc(Br)cc2)o1	-2%	3%
c1ccc(-n2c(SCC3CCCCO3)nnc2-c2cccs2)cc1 (stereo not given)	18µM*	-11%
CC(=O)C1=C(O)C(=O)N(c2ccc(C)cc2)C1c1ccccn1 (stereo not given)	-8%	27%
Clc1ccc(/C=N/Nc2nnc(-c3ncc[nH]3)c3ccccc23)cc1	u	1%
CN(Cc1nc(CC2CC2)no1)CC12CC3CC(CC(C3)C1)C2	7%	-24%
COCCN(C(=O)CSc1nnc(C)n1-c1ccc(C)cc1)c1c(N)n(Cc2ccccc2)c(=O)[nH]c1=O	9%	0%
COc1cc(C=O)ccc1OCCOCCOc1cc(C)ccc1Cl	u	5%
CCCc1nc2ccc(NC(C)=O)cc2c(=O)n1Cc1ccccc1Cl	u	13%
CC(=O)NC(=S)Nc1ccc(S(=O)(=O)Nc2ncccn2)cc1	0%	4%
O=C(NCc1cccnc1)c1ccccc1NS(=O)(=O)c1ccc(F)cc1	3%	-20%
CSc1cccc(NC(=O)C2CCN(S(=O)(=O)c3ccc4c(c3)NC(=O)CO4)CC2)c1	u	1%
COc1ccc(OC(=O)c2cccnc2)cc1	-4%	-26%
CCOC(=O)N1CCN(C(=O)Nc2ccc(NC(=O)N3CCN(C(=O)OCC)CC3)cc2)CC1	11%	2%
COc1ccccc1CNC(=O)CN1C(=O)C(C)N(c2ccc(C)cc2)C1=O (stereo not given)	u	8%
C=CCSc1ncc(C(=O)OCC)c(N)n1	-5%	9%
CCc1cccc(C)c1NC(=O)c1cc(C)oc1C	u	-1%
Cc1nc(Nc2ccccc2)sc1C(=O)c1ccc(F)cc1	u	12%
CC(C)C[C@@H]1NC(=O)[C@H](Cc2ccc(O)cc2)NC(=O)c2cc([N+](=O)[O-])cc(I)c2NCCC[C@@H](C(N)=O)NC1=O	-1%	-2%
O=S(=O)(Cc1ccccc1)NCc1ccccn1	-16%	1%
CSc1ccc(CN2CCC(CO)(Cc3ccc(Cl)cc3)CC2)cc1	u	8%
O=C(Cc1c(O)c2ccccc2[nH]c1=O)NC1CCCCCC1	-16%	-15%
Cc1c(-c2ccnc3cc(C(=O)O)nn23)cnn1C	5%	17%
Cc1ccccc1COc1ccc(/C=C(\C#N)C(N)=O)cc1	-17%	0%
CC(=O)CCC1CC(c2ccc(Cl)cc2)=NO1 (stereo not given)	1%	-1%
CC(=O)Nc1ccc(NC(=O)C(C)OC(=O)CNC(=O)c2ccc(-c3ccccc3)cc2)cc1 (stereo not given)	-9%	-5%
NS(=O)(=O)c1cccc(NC(=O)COC(=O)Cn2cc(C(F)(F)F)ccc2=O)c1	-10%	x
CCC(C(=O)Nc1ncccn1)(C(F)(F)F)C(F)(F)F	-8%	-10%
CC(=O)NC(NC(=S)N1CCCCCC1)C(Cl)(Cl)Cl (stereo not given)	3%	8%
CC1NC(=O)NC1CCCCCC(=O)Nc1ccc(F)c(Cl)c1 (stereo not given)	6%	8%
COc1ccc(-c2cc(CS(=O)(=O)c3ccccc3)on2)cc1	-8%	24%
CC(=O)N1CCN2C(=O)C1CCCC(=O)c1cc(C3CCCCC3)ccc12 (stereo not given)	-14%	0%
COc1ccc(C)cc1S(=O)(=O)N(CC(=O)N1CCOCC1)c1cc(C)cc(C)c1	-7%	-2%
O=[N+]([O-])c1cccc(/C=C/c2ccncc2)c1	-21%	-3%
Nc1nc(Nc2ccccc2)nc(N2CCOCC2)c1[N+](=O)[O-]	-26%	1%
O=C(NC1CC2CCC1C2)c1ccc(CN2CCOCC2)cc1 (stereo not given)	7%	-2%
Cc1cc(C)n2nc(C(=O)NCc3cccc(C(F)(F)F)c3)nc2n1	-1%	-3%
N=C(N)SCc1cn2ccccc2n1	u	16%
CCOc1ccc(NC(=O)CN2CCc3cc4c(cc3C2)OCCCO4)cc1OCC	u	3%
CCCNC(=O)c1cc(-c2ccc3c(c2)OCO3)on1	3%	-2%
Cc1[nH]nc2c1C(c1ccc(O)cc1)C1=C(CC(C)(C)CC1=O)N2 (stereo not given)	2%	-10%
COc1cccc(CNC(=O)CCn2c(=O)c3cccn3c3cccnc32)c1	-8%&-1%	-8%
CCn1ccnc1CNC(=O)C1CCC(=O)N(Cc2ccccc2F)C1 (stereo not given)	13%	-9%
COc1ccc(CNC(=O)N2CCN(c3cccc(Cl)c3)CC2)cc1OC	u	-3%
CCOC(=O)/C(=C\c1ccc(OC)c(OC)c1)C(=O)c1cccnc1	-28%	-9%
O=C(NC1CCCCC1)C(c1ccco1)N(Cc1cccs1)C(=O)Cn1nnc2ccccc21 (stereo not given)	u	8%

Continued.
SMILES	DT40 TDP1 CPT	N370S GC mod
COc1ccccc1N1CC(C(=O)Nc2ccccc2N2CCCC2)CC1=O (stereo not given)	-28%	-6%
CCc1nc2ccccc2c(NC(=O)CN2CC(C)CC(C)C2)c1C (stereo not given)	u	-10%
O=Cc1cn(-c2ccccc2)nc1-c1cc2ccccc2oc1=O	u	3%
Cc1ccc(Cl)cc1N1C(=O)CC(C)(C)CC1=O	-15%	6%
N#Cc1ccccc1Cn1c(=O)oc2ccccc21	7%	-12%
Cc1occc1C(=O)N1CCCc2ccccc21	-9%	5%
C=CCSC(=S)Nc1c(C)n(C)n(-c2ccccc2)c1=O	u	-11%
COc1ccccc1C(=O)NCCC(=O)NCC(c1ccccc1)N(C)C (stereo not given)	-7%	0%
CC(C)Cc1ccc(C(=O)Nc2ccc(Cc3ccncc3)cc2)o1	u	-2%
CC(C)Oc1ccc(C2CC(=O)N(c3cccc(Br)c3)C2=O)cc1 (stereo not given)	-28%	4%

Single records (already shown). Order of screens: DT40 TDP1 CPT | N370S GC mod
Entry for COc1ccccc1C(=O)NCCC(=O)NCC(c1ccccc1)N(C)C (stereo not given) → -7% | 0%
Entry for O=Cc1cn(-c2ccccc2)nc1-c1cc2ccccc2oc1=O → u | 3%
Entry for CC(C)Cc1ccc(C(=O)Nc2ccc(Cc3ccncc3)cc2)o1 → u | -2%
Entry for CCc1nc2ccccc2c(NC(=O)CN2CC(C)CC(C)C2)c1C (stereo not given) → u | -10%
Entry for COc1ccccc1N1CC(C(=O)Nc2ccccc2N2CCCC2)CC1=O (stereo not given) → -28% | -6%

Four entries from above in a different format.
SMILES | DT40 TDP1 CPT | N370S GC mod
O=Cc1cn(-c2ccccc2)nc1-c1cc2ccccc2oc1=O | u | 3%
CCCNC(=O)NC(=O)CSc1nc2cc(C(=O)OC)ccc2c(=O)n1-c1ccccc1 | -21% | 0%
O=C(Nc1ccc(C(=O)NCC2CCN(Cc3ccccc3F)CC2)cc1)C1=CSCCO1 | -6% | 0%
COc1c(Cl)cc(Cl)cc1C(=O)Nc1ccc(CN2CCOCC2)cc1 | 16µM* | -4%

More compounds follow.
SMILES	DT40 TDP1 CPT	N370S GC mod
Cn1cc(Cl)c(C(=O)OCC(=O)Nc2ccc(S(N)(=O)=O)cc2)n1	3%	-10%
O=C(COC(=O)c1ccco1)NCc1ccc2c(c1)OCO2	u	11%
Cc1cc(C)c(Cn2ncn(-c3ccc(Br)cc3)c2=O)c(C)c1	-25%	3%
Cc1ccc(C(=O)Nc2nc(-c3cc(Cl)sc3Cl)cs2)cc1	-26%	15%
Cc1oc(-c2ccc(Cl)cc2)cc1C(=O)NC1CCN(Cc2ccccc2)CC1	u	17%
O=C(Nc1ccccc1Cl)NC1(C(=O)NCC2CCCO2)CCCCC1 (stereo not given)	31%[activator]	-11%
Cc1cc(OC(=O)c2ccc(Cl)cc2Cl)nc(C)n1	-3%	6%

Screening data from PubChem BioAssay.
